Mtb MbtI inh: MbtI salicylate synthase inhibitors, primary screen, biochemical, fluorescence intensity; purified MbtI enzyme, fluorescence intensity read-out; inhibition, %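 (about 17 µg/mL by stock and volumes)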; actives 0.89% (n = 100,000); AID 493033, 2011;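 active = above 50% in both replicates, above 80% if mildly self-fluorescent; inactive = the rest, strongly fluorescent compounds included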;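 also: 0% = mean of negative and 100% = mean of positive controls; one replicate is shown; some compounds called inactive have numbers as strong as hits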
MenB inh: M. tuberculosis MenB inhibitors, primary screen, biochemical, absorbance. 1,4-dihydroxy-2-naphthoyl-CoA synthase (Mycobacterium tuberculosis (strain ATCC 25618 / …. MenB enzyme assay, absorbance read-out; some hits fall short of the stated cut. inhibition, %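 (about 12 µg/mL by stock and volumes)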. actives 0.43% (n = 100,000);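 active = mean of two replicates above 30%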;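 also: 0% = no compound and 100% = wells with inactive enzyme; the first replicate is given; strong numbers were not always called active; inactives centre near -10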
Target sequence (P9WNP5 whole entry, looked up): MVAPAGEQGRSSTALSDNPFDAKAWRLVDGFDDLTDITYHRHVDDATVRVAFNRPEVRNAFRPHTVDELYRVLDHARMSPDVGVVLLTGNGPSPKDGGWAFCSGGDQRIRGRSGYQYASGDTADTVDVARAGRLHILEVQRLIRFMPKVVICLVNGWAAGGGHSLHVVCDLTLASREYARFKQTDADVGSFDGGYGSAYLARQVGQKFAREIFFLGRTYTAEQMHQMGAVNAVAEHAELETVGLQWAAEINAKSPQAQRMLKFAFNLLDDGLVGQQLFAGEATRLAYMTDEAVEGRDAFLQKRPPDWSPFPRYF
PV pol inh: poliovirus RdRp elongation inhibitors, primary screen, biochemical, fluorescence polarization, total intensity. actives 0.66% (n = 150,000). % elongation, % (compound at 16.7 µg/mL). Genome polyprotein (Poliovirus type 1 (strain Mahoney)), P03300. poliovirus polymerase elongation; active compounds read low; in the data active = % elongation below about 90%; also: some results filed as inactive read as strong as hits
Target sequence (P03300 1749-2209 limits assumed): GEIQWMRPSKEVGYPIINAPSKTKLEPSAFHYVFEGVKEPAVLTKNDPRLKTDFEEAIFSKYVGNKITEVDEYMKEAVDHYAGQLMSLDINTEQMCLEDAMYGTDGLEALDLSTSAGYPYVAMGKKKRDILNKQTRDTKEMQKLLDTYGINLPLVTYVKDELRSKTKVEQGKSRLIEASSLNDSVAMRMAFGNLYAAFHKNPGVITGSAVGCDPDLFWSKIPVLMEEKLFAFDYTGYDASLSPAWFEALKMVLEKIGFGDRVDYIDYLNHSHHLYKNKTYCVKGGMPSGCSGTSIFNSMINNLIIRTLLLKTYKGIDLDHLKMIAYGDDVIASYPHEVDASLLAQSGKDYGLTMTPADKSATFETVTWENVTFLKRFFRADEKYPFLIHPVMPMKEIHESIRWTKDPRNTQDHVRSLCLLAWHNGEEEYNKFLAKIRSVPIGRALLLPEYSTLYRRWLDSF
PV pol inh intensity: further read-out of PV pol inh, marked with its call; % elongation; measured here: total intensity read-out; formula for this scale not given here;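 total fluorescence in place of polarization; lower means less elongation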
Starred values were filed as active, the others as inactive; nt = not tested or not shown; & = joins results of further samples.

molecule	Mtb MbtI inh	MenB inh	PV pol inh	PV pol inh intensity
Cc1ccc(NC(=S)N(Cc2c[nH]c3ccccc23)C(C)C)cc1C	3	-68	105	107
CCn1cc(S(=O)(=O)N2CCN(Cc3ccccc3)CC2)cn1	-11	5	99	101
CN1CCc2nc3ccccc3c(C(=O)OCC(=O)NCc3ccccc3)c2C1	3	-11	99	107
CCOc1ccc(C2CC(=O)N3CN(CCc4ccccc4)CSC3=C2C#N)cc1 (stereo unspecified)	37	-20	102	106
CC(C)(C)c1cc(C(=O)NC2CC2)n(Cc2ccc(F)cc2)n1	-10	-6	100	97
COc1ncnc2nc[nH]c12	nt	-9	106	104
Cc1onc2c1C(=O)CC(C)(C)C2	-10	17	100	102
Cc1[nH]c(SCC(=O)N2CCN(C(=O)c3ccco3)CC2)nc1Cc1ccccc1	-2	6	101	108
CN(C(=O)C12CCC(C)(C(=O)O1)C2(C)C)c1ccccc1 (stereo unspecified)	-12	-52	100	101
CCCCNC(=O)c1ccc(CS(=O)(=O)c2ccc(C)cc2)o1	10	-4	102	101
CC(C)CNC(=O)c1cccc(S(=O)(=O)N(C)C)c1	0	nt	104	97
CCOC(=O)/C=C1\SCC(=O)N1CC(=O)Nc1cccc(C)c1C	-5	-9	110	108
Fc1ccc(CSc2nnc(-c3ccco3)o2)c(Cl)c1	5	4	103	107
O=C(Nc1cc2c(ccc3ccccc32)oc1=O)c1ccccc1	-41	2	102	104
Cc1nn(-c2ccccc2)c2c1C(C(F)(F)F)(C(F)(F)F)OC(c1ccco1)=N2	4	8	103	102

Going on with the list:
molecule	Mtb MbtI inh	MenB inh	PV pol inh	PV pol inh intensity
CN(CC(=O)Nc1ccccc1Cl)CC1COc2ccccc2O1 (stereo unspecified)	3	2	nt	nt
CC(C)(C)NC[C@@H](O)COc1cccc2c1CCCC2=O	-8	-3	101	101
O=C(Nc1nc2ccccc2[nH]1)C1CCCC1	3	10	104	102
Cc1ccccc1CSCC(=O)Nc1ccc(O)cc1C(=O)O	-90	-5	103	101
O=C(CSc1nc2ccccc2c2nc3ccccc3n12)NCc1ccco1	4	1	103	104
C/C(=N/NC(=O)CSc1nc2ccccc2[nH]1)c1ccncc1	0	-9	103	103
CCCNC(=O)CCc1nnc2ccc(N3CCC(C)CC3)nn12	20	16	102	99
CC(=O)N1CC(C(=O)N2CCN(S(=O)(=O)c3ccccc3C#N)CC2)Oc2ccccc21 (stereo unspecified)	-7	-10	101	103
N#CSCOC(=O)Oc1ccc2ccccc2c1	-15	-6	96	93
CCn1c(O)c(C2=c3cc(Cl)ccc3=NC2=O)c2ccccc21	-1	nt	103	104
CCC(C)NC(=O)c1cnn2c(C)cc(C)nc12 (stereo unspecified)	91	-27	105	102
O=C(O)c1nn(CC2CCCCC2)c(=O)c2ccccc12	1	-15	104	103
CCOC(=O)/C=C1/CSc2ccccc2N1	4	-15	101	104
CC(C)COC(=O)Nc1cccnc1	-10	-1	100	104
Cc1ccc(Sc2c(C)nn(C(=O)c3ccco3)c2C)cc1	-2	-3	102	105

(more compounds)
molecule	Mtb MbtI inh	MenB inh	PV pol inh	PV pol inh intensity
CCCCN(C(=O)Nc1cccc2ccccc12)C1CCS(=O)(=O)C1 (stereo unspecified)	-24	1	102	101
Cc1nc(COc2ccc(C(C)(C)C)cc2)ncc1S(=O)(=O)c1ccc(Cl)cc1	-11	5	108	112
Cn1c(/C(C#N)=C(\O)COc2cc(Cl)c(Cl)cc2Cl)nc2ccccc21	14	-21	96	92
CC1(C)C(=S)NC(c2ccccc2)N1O (stereo unspecified)	-3	-10	103	102
O=C1C(Cc2cc(Cl)ccc2Cl)S/C(=N\N=C\c2ccccc2O)N1Cc1ccco1 (stereo unspecified)	7	11	107	106
C=CCN(C(=O)CN1CCN(C)CC1)c1nc(-c2c[nH]c3ccccc23)cs1	-18	1	99	101
O=C(COc1c(-c2ccco2)oc2ccccc2c1=O)c1ccc(Br)cc1	12	-1	100	100
O=C(NCCC(=O)N1CCN(c2ncccn2)CC1)c1ccccc1Cl	5	-31	nt	nt
O=c1c2ccccc2c(-c2ccccc2)nn1CN1CCCC1	4	-12	104	104
CCc1cc2c(Cl)ncnc2s1	-5	nt	105	109
CCOc1cccc(CNc2ccc(NC(=O)CC)cc2)c1O	-8	-13	100	103
COC(=O)c1c(C(=O)OC)c2n(c1C)CCS2	9	-4	103	103
CCOC(=O)c1cnc(SCC(=O)N2c3ccccc3SC3C=CC=CC32)nc1N (stereo unspecified)	0	-9	101	101
Cc1noc(C)c1CC(=O)Nc1cc(C(F)(F)F)ccc1NC1CCCCC1	2	-22	100	102
N#C/C(=C\C(=C\N1CCOCC1)c1ccccc1)c1ccccc1	-24	-20	103	107

Later entries:
molecule	Mtb MbtI inh	MenB inh	PV pol inh	PV pol inh intensity
CCOC(=O)c1[nH]c2ccccc2c1N=CN(C)C	-145	1	101	102
CS(=O)(=O)c1ccc(NC(=O)c2cc(=O)[nH]c3ccccc23)cc1	17	3	102	106
O=C(O)/C=C/C(=O)Nc1ccc(SC(F)(F)F)cc1	5	nt	101	95
O=C(c1cc(-c2ccccc2Cl)nc2ccccc12)N1CCN(C2CCS(=O)(=O)C2)CC1 (stereo unspecified)	0	5	98	100
CCCc1ccc(C(=O)COc2ccc(-n3cnnn3)cc2)cc1	-9	-22	105	100
COc1ccc(C(C#N)C2(C)OCCO2)cc1OC (stereo unspecified)	-3	-33	103	99
CCCCn1nc(NS(=O)(=O)c2ccc(C)cc2)c2cc3cccc(C)c3nc21	-7	-30	103	103
Cc1nc2cc(-n3ccc(=O)cc3)ccc2n1-c1ccccc1	7	nt	100	98
COC(C(=O)Nc1ccccc1SC)c1ccccc1 (stereo unspecified)	3	-38	96	100
CCNC(=O)[C@@H]1O[C@H](n2cnc3c(N)ncnc32)[C@@H](O)[C@H]1O	nt	-14	103	102
OCC(O)C1OC(Nc2ccc(Cl)cc2)C(O)C1O (stereo unspecified)	-3	-22	104	109
COC(=O)C(=O)/C=C(\O)c1c(F)c(F)c(OC)c(F)c1F	-1	-6	104	102
Cc1cccc(N2CCN(C(=O)CN3CCN(Cc4ccc(Cl)cc4)C3=O)CC2C)c1 (stereo unspecified)	-7	1	103	105
Cc1cc(=O)[nH]c(NNC(=S)NCc2ccccc2)n1	18	-38	102	103
COC(=O)CSc1n[nH]c(-c2ccccn2)n1	1	-50	107	103

(more compounds)
molecule	Mtb MbtI inh	MenB inh	PV pol inh	PV pol inh intensity
CN1C(=O)NC(c2ccccc2)C2=C1CC(C)(C)CC2=O (stereo unspecified)	8	0	103	98
O=C1OC(Nc2cccc(C(F)(F)F)c2)c2ccccc21 (stereo unspecified)	7	-21	105	99
CSc1ccccc1C(=O)Nc1ncn[nH]1	107	-5	103	105
CC1(C)CC(NC(=S)NC(=O)c2ccccc2)CC(C)(C)N1	nt	-12	106	111
NC(=S)N/N=C1/C(=O)c2cccc3cccc1c23	76*	-13	100	101
COc1ccccc1N1CCN(Cc2ccc(SC)cc2)CC1	nt	-15	102	107
C=CCOc1nc(-c2ccccc2)cc(-c2ccc(OC)cc2)n1	nt	-38	99	102
CC1C(=NO)C(C)C(c2ccccc2)NC1c1ccccc1 (stereo unspecified)	-18	-18	102	103
Cc1cccc(NC(=S)NCc2ccco2)c1	8	-34	99	99
COc1ccc2c3c([nH]c2c1)[C@@H]1C[C@@H]2C(OC(C)=O)=COC(C)C2CN1CC3 (stereo partly specified)	nt	-19	112	125
COc1cccc(N=Cc2cn(-c3ccccc3)nc2-c2cccs2)c1	-2	-19	104	106
CN(Cc1ccccc1)C(=O)c1cc(S(=O)(=O)N2CCCC2)cn1C	-8	-10	99	101
CCn1cc(CCCC(=O)N2CCc3ccccc32)c2ccccc21	-2	6	102	103
Cc1cc(C)c(NC(=O)c2cc(=O)c3ccccc3o2)c(C)c1	-3	nt	100	101
CCC(=O)c1ccc(N2CCCC2)c(F)c1	7	-52	102	103

Later entries.
molecule	Mtb MbtI inh	MenB inh	PV pol inh	PV pol inh intensity
CN(C(=O)C1CC1)c1ccccc1C(=O)O	-37	-2	108	107
Cc1nc2ccccc2nc1C	nt	13	99	104
O=C(O)CC1N=Cc2ccccc21 (stereo unspecified)	nt	2	103	99
COc1cccc(NC(=O)N2CCC3(CC2)Oc2ccccc2C(=O)N3Cc2ccccc2F)c1	-5	-18	101	102
Clc1ccc(N2CCCCC2)nn1	3	-8	102	104
COC(=O)c1cc(OC(=O)c2ccc(OC)c(OC)c2)n(C)n1	-9	-15	104	103
CC(C)(Oc1ccc(Cl)cc1)C(=O)OCC(=O)N1CCc2ccccc21	-8	nt	103	105
CC(C)C(NS(=O)(=O)c1ccccc1)C(=O)N1CCCC1 (stereo unspecified)	-23	2	103	105
COc1ccc(CNC(=O)CSC(=S)N2CCCC2)cc1	-2	-10	nt	nt
O=c1ccc(-c2ccco2)nn1Cc1ccc(Cl)c(Cl)c1	73	4	100	104
Cc1cc2c(cc1S(=O)(=O)NC1CCCC(C)C1C)OCC(=O)N2 (stereo unspecified)	7	-11	101	96
CC(=O)N1N=C(c2ccccc2)CC1c1ccccc1 (stereo unspecified)	3	28	102	103
O=C(CCCC(=O)OC1CCCC1)OC1CCCC1	-4	nt	104	104
COCC(C)NC(N)=S (stereo unspecified)	4	-39	103	94
CCN(CC(=O)Nc1cc(C)on1)Cc1nc2ccccc2c(=O)[nH]1	0	-12	102	103

Some of the entries so far, field by field:
structure: Cc1ccc(Sc2c(C)nn(C(=O)c3ccco3)c2C)cc1
  Mtb MbtI inh: -2
  MenB inh: -3
  PV pol inh: 102
  PV pol inh intensity: 105
structure: CCCCN(C(=O)Nc1cccc2ccccc12)C1CCS(=O)(=O)C1 (stereo unspecified)
  Mtb MbtI inh: -24
  MenB inh: 1
  PV pol inh: 102
  PV pol inh intensity: 101
structure: Cc1nc(COc2ccc(C(C)(C)C)cc2)ncc1S(=O)(=O)c1ccc(Cl)cc1
  Mtb MbtI inh: -11
  MenB inh: 5
  PV pol inh: 108
  PV pol inh intensity: 112
structure: Cn1c(/C(C#N)=C(\O)COc2cc(Cl)c(Cl)cc2Cl)nc2ccccc21
  Mtb MbtI inh: 14
  MenB inh: -21
  PV pol inh: 96
  PV pol inh intensity: 92

By substructure: the entries above with two or more sulfur atoms.
molecule	Mtb MbtI inh	MenB inh	PV pol inh	PV pol inh intensity
CCOC(=O)c1cnc(SCC(=O)N2c3ccccc3SC3C=CC=CC32)nc1N (stereo unspecified)	0	-9	101	101
COc1ccc(CNC(=O)CSC(=S)N2CCCC2)cc1	-2	-10	nt	nt

Additional results
molecule	Mtb MbtI inh	MenB inh	PV pol inh	PV pol inh intensity
CC1CN(c2nc3ccccc3nc2SCC(=O)Nc2ccccc2)CC(C)O1 (stereo unspecified)	0	-14	107	107
COC(=O)CNC(=O)c1cccnc1Sc1cc(OC)ccc1OC	-11	-4	110	115
CN=C1SC(CC(=O)Nc2ccc(OC)c(OC)c2)C(=O)N1/N=C(\C)c1ccc(OCC#N)cc1 (stereo unspecified)	0	2	99	101
Cc1nn(Cc2ccccc2)c2sc(C(=O)NCc3cccnc3)cc12	8	1	100	101
O=C(O)C1C2C=CC(C2)C1C(=O)NCc1ccccc1F (stereo unspecified)	1	-12	102	103
COc1ccccc1-c1oc2cc(Cl)ccc2c(=O)c1O	41	-19	100	102
Cc1nc(C(F)(F)F)ccc1C(=O)Oc1ccccc1N1CCCCC1	-7	11	106	115
N#Cc1ccccc1NC(=O)CSC1=NCCS1	1	-5	99	99
N#CC1=C(N)NC(=S)C(C(N)=O)C1c1ccccc1 (stereo unspecified)	nt	-62	94	97
COC(=O)C(N)c1c[nH]c2ccccc12 (stereo unspecified)	-1	nt	101	96
COc1ccccc1N1CCN(C(=O)C2CC(=O)N(c3ccccc3)C2)CC1 (stereo unspecified)	3	-19	102	105
C=Cn1c(C(=O)O)ccc1-c1ccc(CC)cc1	nt	-5	106	104
O=C(CCCOc1ccc(Cl)cc1)NCC1CCCO1 (stereo unspecified)	nt	0	105	108
Cc1c(CC(=O)O)c(=O)oc2cc3occ(-c4ccc(Cl)cc4)c3cc12	18	-4	104	103
COc1ccc(CCNC(=O)c2cc3ccccc3s2)cc1OC	-3	-13	106	109

More entries:
molecule	Mtb MbtI inh	MenB inh	PV pol inh	PV pol inh intensity
C=CCSc1nc2ccccc2n1CC(=O)Nc1cccc(C#N)c1	18	-7	109	119
COCCCn1c(-c2cccs2)csc1=Nc1ccc(S(=O)(=O)N2CCOCC2)cc1	2	-56	103	99
COc1ccc2c(c1)CC/C(=C\c1ccsc1)C2=O	-7	nt	101	106
COC(=O)C1CC(O)CN1S(=O)(=O)c1ccc(Cl)cc1 (stereo unspecified)	-23	-14	100	101
Cc1cc(O)c(Cc2c(O)cc(C)[nH]c2=O)c(=O)[nH]1	-7	-14	103	102
O=C1c2ccccc2-c2n[nH]c3cccc1c23	2&-3	-13&-72	99&92&93	106&110&111
COC(=O)c1ccc(CNC(=O)COc2ccc(Cl)cc2Cl)cc1	-5	nt	104	107
Fc1cccc2c1CNC(=S)N2	82*	-18	100	94
CCn1c(C(=O)N2CCCC(C(=O)NC3CCCC3)C2)cc2sccc21 (stereo unspecified)	0	0	104	102
Cn1c(SCC(=O)Nc2ccccc2)nc2ccccc2c1=O	2	-7	100	100
